Screening data: PubChem BioAssay, National Center for Advancing Translational Sciences (NCATS)
RE007 growth inh: qHTS Assay for Inhibitors of the HIV-1 protein Vpr; S. pombe RE007 Vpr strain, BacTiter-Glo ATP luminescence, 24 h; control for the full effect not named in the record; Potency, µM (highest dose often 92.2 µM), without a hit: top-dose activity change, negative = less growth; 360,000 tested, 0.21% active; AID 651644, 2012; active = well fitted falling curve with a large enough effect; inconclusive = small, poorly fitted or top-dose-only effect; inactive = no such curve, though single readings can be large or run the other way;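 also: nearly all actives have a fitted effect of over 50% in size; the assay follows cell death caused by Vpr and the record does not say whether a fall means rescue or toxicity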
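Fission yeast strain RE007, carrying one chromosomally integrated HIV-1 vpr copy, was seeded at OD 0.01 in PMG+AL medium with 23 nL pinned compound. After 24 h at 30 °C and 99% humidity, viability was read by BacTiter-Glo luminescence.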
StopGo reporter: High Throughput Screening for Foot and Mouth Disease Virus Antivirals | human cells with a luciferase reporter of 2A StopGo recoding; control for the full effect not named in the record | Potency, µM (titrated, usually from 57.9 µM), for inactives: at the highest dose signal change, negative = less light | 410,000 tested, 1.2% active; active = well fitted falling curve with a large enough effect; inconclusive = small, poorly fitted or top-dose-only effect; inactive = no such curve, though single readings can be large or run the other way; tested in HEK293T cells; also: nearly all actives have a fitted effect of over 45% in size; luciferase light after 4 h
* = called active by the depositor; u = inconclusive; & = joins results of further samples; [ ] = another dose, or the depositor's remark. % is scaled to controls: 0 for no effect and ±100 for the full control effect; potency is read from the fitted curve at half-maximal effect. These rows are one share of the data, so the mix of outcomes need not match the whole.

SMILES	RE007 growth inh	StopGo reporter
O=C(O)C[C@H]1c2cc(F)ccc2S(=O)(=O)N1C1CCN(Cc2ccccc2)CC1	-9.9%	-9.2%
COC(=O)[C@]12CCCCC=C1N(Cc1cccc3ccccc13)C(=O)[C@H](CC(=O)NCc1cccc3ccccc13)C2	5.5%	-15.0%
O=C(N[C@H](CO)Cc1ccccc1)[C@H]1O[C@@H](n2ccc(=O)[nH]c2=O)[C@H](O)[C@@H]1O	12.0%	-11.2%
CS(=O)(=O)c1ccc(Nc2nc(C(N)c3ccccc3)cs2)cc1 (stereo not drawn)	-14.4%[18.4 µM]	-4.7%
CCCCCCn1c(=O)n2n(c1=O)[C@@H]1CN(S(=O)(=O)c3ccc(C)cc3)C[C@]1(O)[C@@H](OC(=O)NCc1ccccc1F)C2	-11.0%	0.0%
CSc1ccc(CN2CCC2(C)C(=O)Nc2cccc(Oc3ccccc3)c2)cc1 (stereo not drawn)	7.6%	-20.6%
CC(C)C[C@@H](CN1CCCC1CN1C(=S)NC[C@@H]1Cc1ccc(O)cc1)N1C[C@H](Cc2ccc(O)cc2)N(CC2CCCCC2)C1=S (stereo partly drawn)	5.4%	u
Cc1cnc(-c2nc3ccccc3n2C(C(=O)Nc2c(C)cccc2C)C2CC2)cn1 (stereo not drawn)	-1.1%	-14.9%
CC1(C)C(=O)C=C(N2CCCCC2)c2ccccc21	-25.7%	-3.1%
CC(C)CC(=O)C(=O)O	-2.0%&-2.1%[18.4 µM]	-13.1%&3.3%
COc1ccc(CN2C(=O)C(CC(=O)NCCc3ccccn3)CC(C(=O)N(C)C)=C2C)cc1 (stereo not drawn)	u	-7.6%
CCCNC(=O)C1(C)CCN(C(=O)c2c(Cl)cccc2Cl)C1 (stereo not drawn)	8.7%[18.4 µM]	-11.4%
CC1=C(C(=O)N(C)C)CC(CC(=O)NCCCN(C)C)C(=O)N1CCCN1CCCC1=O (stereo not drawn)	10.5%	-6.4%
Cn1c(=O)c2cc(NC(=O)Nc3ccccc3)ccc2n1Cc1ccccc1	2.7%[18.4 µM]	25.1%
CC1(C(=O)Nc2ccc3c(c2)OCCO3)CN(S(C)(=O)=O)CC(=O)N1Cc1cccs1 (stereo not drawn)	-3.6%	0.4%
OC(c1ccccc1)c1nc(-c2cccc(F)c2)cs1 (stereo not drawn)	22.9%	16.5%
COc1cccc(NC(=O)N(C)C[C@H]2Oc3cc(C#Cc4ccncc4)ccc3S(=O)(=O)N([C@H](C)CO)C[C@H]2C)c1	-4.4%	90.8%[activator]
CC1(C(=O)Nc2ccc3c(c2)OCCO3)CN(S(C)(=O)=O)CC(=O)N1CCc1ccccc1F (stereo not drawn)	2.1%	46.9%[activator]
CN1OC[C@@H]2CN(Cc3ccccc3)[C@H](c3cccc(Oc4ccccc4)c3)C[C@@H]21	-15.4%	u
COc1ccc(CCNC(=O)Nc2ccc3c(c2)c(=O)n(C)n3CC=C(C)C)cc1OC	4.3%	-24.9%
CCCc1nc2ccc(Br)cn2c1Cc1ccccc1OC	-24.0%	u
COc1ccc(CN2C[C@@H](CO)O[C@@H](n3cnc4c(NC5CCC5)ncnc43)C2)cc1	7.8%	0.3%
O=C1CCC2CN3CCc4c([nH]c5ccccc45)C3CC2C1 (stereo not drawn)	-17.8%	-15.0%
CC(C)C[C@H]1CNC(=S)N1CC1CCCN1C[C@H](CC(C)C)N1C[C@H](Cc2ccccc2)N(CC2CCCCCC2)C1=S (stereo partly drawn)	-6.6%	-28.0%
Cc1ccc(S(=O)(=O)NN=CC2(c3ccccc3)CC2)cc1	5.1%	0.0%

Reprinted from the part before: six compounds; new compounds follow.
SMILES	RE007 growth inh	StopGo reporter
COc1ccc(CCNC(=O)Nc2ccc3c(c2)c(=O)n(C)n3CC=C(C)C)cc1OC	4.3%	-24.9%
CCCc1nc2ccc(Br)cn2c1Cc1ccccc1OC	-24.0%	u
COc1ccc(CN2C[C@@H](CO)O[C@@H](n3cnc4c(NC5CCC5)ncnc43)C2)cc1	7.8%	0.3%
O=C1CCC2CN3CCc4c([nH]c5ccccc45)C3CC2C1 (stereo not drawn)	-17.8%	-15.0%
CC(C)C[C@H]1CNC(=S)N1CC1CCCN1C[C@H](CC(C)C)N1C[C@H](Cc2ccccc2)N(CC2CCCCCC2)C1=S (stereo partly drawn)	-6.6%	-28.0%
Cc1ccc(S(=O)(=O)NN=CC2(c3ccccc3)CC2)cc1	5.1%	0.0%
Cc1cccc(C)c1NC(=O)C(c1ccnc2ccccc12)n1c(=O)c(-c2ccccc2)nc2ccccc21 (stereo not drawn)	12.3%	-8.9%
COc1ccc([C@H]2N[C@]3(CCCN(Cc4ccc(Br)cc4)C3=O)[C@H]3C(=O)N(C)C(=O)[C@@H]23)cc1	-1.6%	-25.3%
CC(C)Oc1cc(F)ccc1-c1cc(C(=O)NCCCn2ccnc2)[nH]n1	-23.5%	4.4%
CC1=C(C(=O)N(C(C)C)C(C)C)CC(CC(=O)NC2CC2)C(=O)N1CCCN1CCCC1=O (stereo not drawn)	0.2%	-2.3%
C[C@@H]1CN([C@@H](C)CO)C(=O)CCCn2nncc2CO[C@H]1CN(C)C(=O)NC1CCCCC1	-6.7%	-17.1%
CCc1nc2ccc(C(=O)N(C)Cc3ccco3)cn2c1N(CC)C(=O)NCCc1ccccc1	-10.3%	19.0%
C[C@H]1CN([C@@H](C)CO)C(=O)CCCn2nncc2CO[C@H]1CN(C)C(=O)c1ccc2ccn(C)c2c1	2.5%	0.3%
O=C(OCc1cn([C@H]2C[C@H](c3ccccc3)N(Cc3cccs3)C[C@@H]2O)nn1)c1ccccc1	-7.9%	-5.0%
CN(C(=O)c1cccc(NC(=O)Cc2ccc(NC(=O)C3CCCN(C(=O)C4CCCCC4)C3)cc2)c1)C1CCCC1 (stereo not drawn)	6.3%	u
CC(=O)N1C[C@H]2CON(C)[C@H]2C[C@H]1c1ccccc1	5.3%	-10.4%
O=C(NC(=S)NCc1ccco1)c1ccccc1[N+](=O)[O-]	0.2%	-12.7%
CC1(C(=O)NS(=O)(=O)c2ccccc2C(F)(F)F)CCN1C(=O)COc1ccc(Cl)cc1 (stereo not drawn)	11.8%	-5.9%
CCCNC(=O)C1(C)CCN(Cc2csc(-c3ccc(Cl)cc3)n2)C1 (stereo not drawn)	-14.6%	0.0%
O=C(Nc1ccccc1)c1ccc(F)cc1F	-10.7%	64.2%[activator]
c1cc(-c2ccsc2)n2ccnc2c1	-5.6%[18.4 µM]	-2.8%
C[C@@H]1CN([C@@H](C)CO)S(=O)(=O)c2ccc(Br)cc2O[C@@H]1CN(C)C(=O)c1ccccn1	0.0%	6.1%
CCCN(C(=O)COC(=O)CNS(=O)(=O)c1ccc(NC(C)=O)cc1)C1CCS(=O)(=O)C1 (stereo not drawn)	-1.4%	-21.5%
CCC(CC)C(=O)N(C)c1c(C)nc2c(OCc3ccc(Cl)cc3Cl)cccn12	-12.3%	u
O=C(O)C1Nc2c(Cl)cc(Cl)c(Cl)c2C2C=CCC12 (stereo not drawn)	5.1%	-24.9%
Cc1occc1C(=O)N(C)CC1CCCN(CCc2ccc(Cl)cc2)C1 (stereo not drawn)	-1.7%	-29.4%
CC(C)(C)NC(=O)C(c1ccncc1)n1c(=O)c(-c2cc3ccccc3[nH]2)nc2ccccc21 (stereo not drawn)	3.1%	0.0%
Cc1ccc(NS(=O)(=O)c2ccc(NC(=O)c3ccccc3C(=O)O)cc2)cc1C	1.3%	-13.6%
Cc1ccc([C@H]2C[C@@H](O)[C@H](n3cc(C4CC4)nn3)CN2C(=O)c2cccs2)cc1	-2.3%	-2.6%
O=C1NC(Cc2ccccc2)c2nc3ccc(Cl)cc3c(=O)n2-c2cc3ccccc3cc21 (stereo not drawn)	4.5%	-25.0%
CCOc1ccc(Cl)cc1-c1cc(C(=O)Nc2cc(OC)ccc2OC)[nH]n1	-4.3%	u

Carrying on:
SMILES	RE007 growth inh	StopGo reporter
C[C@@H]1CN([C@H](C)CO)C(=O)CCCn2nncc2CO[C@@H]1CN(C)S(=O)(=O)c1ccc(Oc2ccccc2)cc1	u	-22.3%
C[C@@H]1CCCCO[C@H](CN(C)C(=O)Nc2ccc(F)cc2)[C@@H](C)CN([C@H](C)CO)C(=O)c2cc(N(C)C)ccc2O1	-2.8%	-11.1%
NC(Cc1ccccc1Cl)c1nn[nH]n1 (stereo not drawn)	-3.7%	-3.8%
CCCCNc1c(-c2ccc(OC)c(SC(C)CC)c2)nc2cnccn12 (stereo not drawn)	-8.8%	u
Cc1cncc(NCc2ccc3c(c2)OCO3)n1	5.2%	27.6%
COc1cc(F)ccc1-c1cc(C(=O)Nc2ccc(NC(C)=O)cc2)[nH]n1	9.0%	16.9%
CCc1ccccc1NC(=O)CN1CCN(C(=O)c2cc(C3CC3)nn2-c2ccccc2)CC1	2.5%	-22.4%
O=C(O)c1cccc(NC(=S)NC(=O)c2cncc(Br)c2)c1	14.0%	21.6%
O=C(NCCN1CCOCC1)C1(C(F)(F)F)C/C(=C\Cc2ccccc2)CCCO1 (stereo not drawn)	-14.5%	-6.9%
Clc1cccc(CNc2ccn3nc(-c4cccc(OCc5ccccc5)c4)cc3n2)c1	0.3%[18.4 µM]	-12.1%
Nc1c(C(=O)Nc2ccccc2)sc2nc(N3CCOCC3)c3c(c12)CCCC3	-1.0%	13.5%
Cc1nc(N)ncc1CCC1OCCO1	-0.7%	-22.5%
COc1ccc2nc3n(c(=O)c2c1)-c1ncccc1C(=O)NC3CC(C)C (stereo not drawn)	-10.6%	-5.0%
Cc1cc2nc(-c3cccc(Cl)c3)c(Cc3cccc(Cl)c3)n2c(C)c1Br	-8.0%	6.6%
CCCS(=O)(=O)NC(=O)C1(C)CCCN(C(=O)c2ccccc2C(F)(F)F)C1 (stereo not drawn)	7.5%	-12.8%
CC(O)C(NC(=O)OCc1ccccc1)C(=O)NCC(=O)NCC(=O)OCc1ccccc1 (stereo not drawn)	10.6%	-9.2%
CCc1nc2ccc(C(=O)NCCOc3ccc(OC)cc3)cn2c1N(C)C(=O)C1CCCCC1	0.8%	-11.1%
COc1ccc(C(C)=O)cc1CN1C(=O)C(C)ON=C1c1cccc(C(F)(F)F)c1 (stereo not drawn)	5.9%[18.4 µM]	-2.6%
CCCNC(=O)C1(C)CCCN(C(=O)c2cc3ccccc3s2)C1 (stereo not drawn)	1.0%	-9.1%
Cc1ccccc1OC1(C)CCN(Cc2ccc(-c3ccccn3)cc2)C1 (stereo not drawn)	-19.3%	-25.3%
OC[C@H]1O[C@H](OC[C@H]2O[C@H](OC[C@H]3O[C@H](O[C@]4(CO)O[C@H](CO)[C@@H](O)[C@@H]4O)[C@H](O)[C@@H](O)[C@@H]3O)[C@H](O)[C@@H](O)[C@H]2O)[C@H](O)[C@@H](O)[C@H]1O	-18.8%	-17.8%
O=C(Nc1ccc(F)c(Cl)c1)c1ccccc1NC(=O)C1CCCCC1C(=O)O (stereo not drawn)	-12.4%	20.8%
Cc1ccsc1C(=O)N1CCC1(C)C(=O)NS(=O)(=O)c1ccccc1 (stereo not drawn)	16.4%	-17.6%
CN(C)c1ccc(CNC(=O)C2(C)Cc3c(-c4cccc(C(N)=O)c4)ccnc3O2)cc1 (stereo not drawn)	0.1%	-4.5%
Cc1ccc(C(O)c2ncc(-c3ccc4ccccc4c3)[nH]2)c(C)c1 (stereo not drawn)	-6.4%	7.8%

Continued:
SMILES	RE007 growth inh	StopGo reporter
C[C@H](O)[C@@H]1C(=O)N2CCc3c([nH]c4ccccc34)[C@@H]2C[C@@H]1N(C)C(=O)c1ccco1	1.9%	-5.2%
CCOC(=O)C1=C[C@@H](C(C)(C)C)N(S(=O)(=O)c2ccc(C)cc2)[C@H]1c1ccc(Cl)c(Cl)c1	0.2%	u
O=S(=O)(c1ccc(SCc2c(F)cccc2Cl)nc1)N1CCCC1	12.1%	-22.0%
CCOC(=O)[C@]12CCCC=C1N(Cc1ccc3c(c1)OCO3)C(=O)[C@H](CC(=O)NCc1ccc(C)o1)C2	-9.2%	-9.8%
Cc1cc(Cl)ccc1OCC(=O)OCC(=O)Nc1ccc(Cl)cn1	-14.4%	-4.4%
Cc1ccc(S(=O)(=O)NC(=O)C2(C)CCN2C(=O)Cc2ccc(-c3ccccc3)cc2)nc1 (stereo not drawn)	13.9%	-5.8%
C[C@H]1Cn2cnc(C(=O)NCc3ccc(CNC(=O)OC(C)(C)C)cc3)c2C(=O)N1	4.2%	0.0%
COc1ccccc1-c1cnc(C(O)c2ccc(F)cc2C)[nH]1 (stereo not drawn)	-17.0%[18.4 µM]	6.7%
COc1cccc(C(N)c2nc(-c3cc(F)cc(F)c3)cs2)c1 (stereo not drawn)	-24.1%	5.8%
COc1ccc(S(=O)(=O)n2c(N)nc3ccccc32)cc1	1.9%	9.0%
C=CCNc1nc(NCc2ccc(NC(C)=O)cc2)c2sc(-c3ccccc3)cc2n1	9.5%	45.1%[activator]
CC(C)C[C@H]1CNC(=O)C(=O)N1C[C@@H]1CCCN1C[C@H](CC(C)C)N1C[C@H](Cc2ccccc2)N(CCc2ccccc2)C(=O)C1=O	8.4%	55.2%[activator]
CCCCCCCCN1C(=O)[C@H](CC(=O)NCc2ccc(C)o2)C[C@@]2(C(=O)OCC)CCC=C12	-20.2%	-14.7%
COc1ccc(C2C=C(C)Nc3ncnn32)cc1 (stereo not drawn)	-5.0%	24.4%
